VCAM-1 rise: enhancers of VCAM-1 display on endothelial cells, cell-based, plate reader, pooled HUVEC, TNFa stimulus (AID 455); HUVEC TNFa-induced VCAM-1 immunofluorescence, plate reader; numbers were filed only for top-ranked candidate wells; augmentation, % at 5 µM; 10,000 compounds, 0.2% hits;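 active = a compound raising TNF-alpha-driven VCAM-1 surface staining, with its hit status upheld on visual or statistical review; inactive = the rest, including hits rejected on review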;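 also: 0% = TNFa with vehicle and 100% = strongest image-checked hit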
Proteasome disasm: inhibitors of ATP-driven 26S proteasome dissociation, primary screen, biochemical, bead-based flow cytometry, GFP-tagged proteasome | 24,000 compounds, 0.2% hits | anti-FLAG beads, GFP-proteasome disassembly | inhibition of disassembly, % (no concentration beside the values) | AID 751, 2007;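 active = above 40%; inconclusive = likely self-fluorescent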;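 also: plate controls were ATP control with full disassembly for no effect and ATP-gamma-S intact proteasomes for full effect; higher percent means more bead fluorescence retained so stronger block of disassembly; stock transfer was 100 nL into about 10 µL; wells with too few beads may also be inconclusive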
Starred values were filed as active, the others as inactive; i = inactive; ? = inconclusive; . = not tested or not shown. An excerpt (hit frequency here may not be typical).

SMILES	VCAM-1 rise	Proteasome disasm
O=C(O)C1CC(=O)N(CCOc2ccccc2)C1 (configuration not stated)	i	0.6
COC(=O)CN(c1ccc(C(C)C)cc1)S(=O)(=O)c1c(C)[nH]c(=O)[nH]c1=O	.	-0.8
CCOC(=O)c1[nH]c(C)c(CN(CCc2ccccc2)C(=O)CCC(=O)O)c1C	.	0.7
Cc1oc(-c2ccccc2F)nc1CS(=O)(=O)CC(=O)N1CCN(Cc2ccccc2)CC1	i	-0.2
Fc1ccc(-c2nnc(-c3ccc(Cl)cc3Cl)o2)cc1	.	0.0
CCc1c(C)nc(SCCOc2ccc(OC)cc2)[nH]c1=O	.	-0.1
COCCn1c(=S)[nH]c2cc(C(=O)NCC3CCCO3)ccc2c1=O (configuration not stated)	.	-1.0
COCCNC(=O)c1cn(C)c2ccc(S(=O)(=O)N(C)C3CCCCC3)cc2c1=O	.	-2.1
COc1ccc(OC)c(S(=O)(=O)n2nc(-c3ccccc3)cc2N)c1	.	0.2
CCOC(=O)c1ccccc1NC(=O)c1ccc2c(=O)n3c(nc2c1)CCCCC3	i	0.3
COc1ccc(NC(=O)Cn2c(=O)sc3ccccc32)c(OC)c1	.	-0.2
CN(C)c1ccc(C=Nc2ccc(N(C)C)cc2)cc1	i	-1.1
Fc1ccc(C2CC(c3ccco3)n3ncnc3N2)cc1 (configuration not stated)	.	0.4
Cc1cc2cc(CNC(=O)c3ccc4c(c3)OCO4)ccc2[nH]1	i	-8.2
O=C(CC1CCS(=O)(=O)C1)NC1CCCCC1 (configuration not stated)	.	-2.0
Cc1ccc(S(=O)(=O)N2CCCC(C(=O)NC3=NCCS3)C2)cc1 (configuration not stated)	i	-0.1
O=S(=O)(c1cccc2cccnc12)N(CCO)CCO	.	0.1
O=C(CN1C(=O)CSC1=O)N1CCc2ccccc2C1	i	0.0
O=C(Cn1ccc2ccccc2c1=O)NCCC(=O)N1CCN(C(=O)c2ccco2)CC1	i	-0.1
CCOCCOC(=O)C1=C(C)N(C)C(=O)NC1c1cc(Cl)c(O)c(OC)c1 (configuration not stated)	.	0.3
CCn1cc(C(=O)NCC(=O)OC)c2cc(OC)c(OC)cc2c1=O	.	0.4
O=C1c2cccnc2C(=O)N1c1cccc(-c2nc3ccccc3o2)c1	i	3.3
CCC1CCCCN1S(=O)(=O)c1ccc2c(c1)CCN2C(=O)C1CCC1 (configuration not stated)	.	-1.3
CN(C)C(=O)N1CCN(C(=O)c2ccco2)CC1	i	-3.2
O=C(Nc1ccc(SC(F)F)cc1)c1ccc2nccnc2c1	i	1.6
Carrying on.
SMILES	VCAM-1 rise	Proteasome disasm
O=C(CCc1nc2ccccc2[nH]1)Nc1ccc2c(c1)OCCO2	.	-0.3
CCOc1ccc(CCNC(=O)CN(C)S(=O)(=O)c2cccc3nsnc23)cc1OCC	.	-0.4
Cc1nc(SCc2ccc(Br)cc2)[nH]c(=O)c1C	i	0.6
CCCN(CCC)C(=O)c1c(C)[nH]c(C(=O)OCC)c1C	i	-0.6
CCOC(=O)C1CCN(S(=O)(=O)c2cccc(-c3csc(C)n3)c2)CC1	i	1.1
COc1ccc(N2CCN(C(=O)C3CCN(S(=O)(=O)N4CCOCC4)CC3)CC2)cc1	.	1.9
CCc1cccc(NC(=O)CN(C)S(=O)(=O)c2cnc[nH]2)c1	.	-0.8
Cc1ccc(-c2nn3c(C)nnc3s2)cc1NC(=O)COc1ccc(Cl)cc1	.	1.1
CCOc1cccc2cc(-c3nnc(-c4ccccc4)o3)c(=O)oc12	.	-1.4
COc1ccc2c(c1)CCc1c-2n[nH]c1C(=O)O	.	-1.3
Cn1cccc1Cc1nnc(SCC(=O)N2CCOCC2)n1-c1ccc(F)cc1	i	-0.1
Cc1nc(-c2ccccc2)sc1C(N)=O	i	-1.0
CCOC(=O)N1CCN(C(=O)C2CCCN(c3ncnc4c3sc3cccc(F)c34)C2)CC1 (configuration not stated)	.	0.9
Cc1ccc(NC(=O)Cn2cc3c(n2)CCC(C)C3)cc1 (configuration not stated)	.	-1.1
CC(=O)N=c1sc(S(N)(=O)=O)nn1C	i	-0.2
CCOC(=O)N1CCC(N2Cc3cccc(C(=O)NCc4ccc5c(c4)OCO5)c3C2=O)CC1	.	?
COc1cccc(OC)c1OCCCc1c(C)n[nH]c1C	.	0.1
CCCCOc1ccc(S(=O)(=O)n2c(C)nc3ccccc32)cc1	i	-0.9
CC(C)N1C(=O)CCC1C(=O)NCCc1ccc(Cl)cc1 (configuration not stated)	.	0.8
CC1CNCCN1S(=O)(=O)c1cccc2cnccc12 (configuration not stated)	i	0.0
CC(=O)Nc1cc(N2C(=O)CCC2=O)ccc1Cl	i	-1.1
Cc1ccc(-c2noc(CCC(=O)NCCN3CCOCC3)n2)cc1	.	-0.1
COc1ccccc1-c1c(C)nn2c(NCCN3CCCC3)cc(C)nc12	.	1.0
CC(C)CCN1CC(C(=O)N2CCN(c3ccc(F)cc3)CC2)CC1=O (configuration not stated)	.	5.1
O=C(NCCc1ccccc1)C1CCN(S(=O)(=O)N2CCCC2)CC1	.	-1.6

Profiles from above:
Listed for `COc1cccc(OC)c1OCCCc1c(C)n[nH]c1C` : VCAM-1 rise: .; Proteasome disasm: 0.1
Listed for `CCOCCOC(=O)C1=C(C)N(C)C(=O)NC1c1cc(Cl)c(O)c(OC)c1` (configuration not stated) : VCAM-1 rise: .; Proteasome disasm: 0.3

(listing goes on)
SMILES	VCAM-1 rise	Proteasome disasm
Cc1c(O)c(CN2CCCC(C)C2)cc2c3c(c(=O)oc12)CCC3 (configuration not stated)	i	-2.0
CCC(=O)c1ccc(OC(=O)c2ccc(Br)o2)cc1	i	-0.2
CCOC(=O)c1sc2nc(NC(=O)COc3ccccc3)sc2c1C	i	1.4
CCOC(=O)N1CCN(c2c(-c3ccc(C(C)C)cc3)c(=O)c2=O)CC1	.	0.2
O=C1C2CCCN2C(c2cccc(Br)c2)N1c1ccc(F)cc1 (configuration not stated)	.	-7.1
Cn1c(=O)c(=O)n(C)c2cc(S(=O)(=O)N3CCN(Cc4ccccc4)CC3)ccc21	.	-1.7
CN1CCN(C(=O)CN2C(=O)CC(C)(C)S(=O)(=O)c3ccccc32)CC1	.	5.2
COc1ccccc1NC(=O)C1CC(=O)N(c2ccc(F)cc2)C1 (configuration not stated)	i	0.0
CCCCCOc1ccc(OC(=O)c2ccncc2)cc1	.	-1.0
COc1ccccc1NC(=O)NCCN1C(=O)C2C3C=CC(C3)C2C1=O (configuration not stated)	.	-2.2
CC(OC1=CC(=O)CCC1)C(=O)c1ccccc1 (configuration not stated)	i	-2.0
CCOC(=O)c1ccc(S(=O)(=O)NC2CCCCCCC2)n1C	i	-0.4
Cc1ccc(-n2nnnc2SCC(=O)N2CCc3ccccc3C2)cc1	i	0.1
CCOC(=O)N1CCN(C(=O)C2CCC(=O)N2C(C)C)CC1 (configuration not stated)	.	-1.6
CCOC(=O)N1CCN(S(=O)(=O)c2cc(Br)cnc2N)CC1	.	-0.8
CCc1ccc(-c2nc(CN3CCC(C(=O)NCc4ccccc4OC)CC3)c(C)o2)cc1	.	26
Cn1nc(OCc2ccccc2)ccc1=O	.	-2.1
O=C(NCc1n[nH]c(=S)n1-c1ccc(F)cc1)c1ccco1	i	-1.6
O=C(CN1C(=O)CC(c2ccco2)Sc2ccccc21)Nc1ccccc1F (configuration not stated)	i	1.3
O=C(/C=C/N1CCOCC1)c1ccc(-c2ccccc2)cc1	i	5.0
Cc1ccc(C2NC(=O)NC(O)(C(F)(F)F)C2C(=O)c2cccs2)o1 (configuration not stated)	.	-1.2
Cc1noc(C)c1CSc1nnc2n(-c3ccccc3)c(=O)c3ccccc3n12	i	-0.9
NC(=O)CN1C(=O)C(O)(CC(=O)c2ccccc2O)c2ccccc21 (configuration not stated)	i	-0.9
CCC(=O)Nc1nn(C)c2nc3c(C)cccc3cc12	i	-2.2
CCCCOc1ccc(CNn2c(C)nc3ccccc3c2=O)cc1	.	0.3

Fetched by compound from the entries so far:
SMILES	VCAM-1 rise	Proteasome disasm
Cc1noc(C)c1CSc1nnc2n(-c3ccccc3)c(=O)c3ccccc3n12	i	-0.9
CCC(=O)Nc1nn(C)c2nc3c(C)cccc3cc12	i	-2.2

Following part.
SMILES	VCAM-1 rise	Proteasome disasm
CCOc1cccc(/C(O)=C2/C(=O)C(=O)N(CCN3CCOCC3)C2c2cccnc2)c1 (configuration not stated)	i	-0.8
Cc1noc(C)c1S(=O)(=O)N1CCC(C(=O)N2CCC(N3CCCCC3)CC2)CC1	.	0.2
CC(=O)c1c(C)[nH]c(C(=O)Nc2ccc(C)cn2)c1C	.	-1.4
COc1ccc(-n2c(=O)cc(N3CCc4ccccc43)[nH]c2=O)cc1	.	-2.6
CCOC(=O)Nc1ccc(NS(=O)(=O)c2ccc(C)cc2)cc1	i	0.8
CC1(C)Oc2ccc3ccc(=O)oc3c2C(N2CCCCC2)C1O (configuration not stated)	i	9.6
O=C(NC1(C(F)(F)F)Oc2ccccc2O1)N1CCCC1	.	0.0
CN1CCCCCC1=Nc1ccccc1C#N	.	2.4
CC(C)CC(c1nnnn1CC1CCCO1)N1CCN(Cc2ccc3c(c2)OCO3)CC1 (configuration not stated)	i	-0.3
Cc1ccc2cc(-c3noc(C4CCCO4)n3)c(=O)[nH]c2c1 (configuration not stated)	.	2.2
CCOc1ccccc1NC(=O)CSc1nc(N)c(C#N)cc1C#N	.	0.6
Fc1ccc(-n2c(Cc3ccccc3)nnc2SCc2nc(-c3cccs3)no2)cc1	i	0.2
Cn1c(=O)c2cc(S(=O)(=O)NCCC(=O)NCc3ccccc3Cl)ccc2n(C)c1=O	.	-1.1
Cc1ccccc1-c1nc(CN2CCC(C(=O)NCCCN3CCCC3)CC2)c(C)o1	i	3.1
CCOc1ccc(CCNS(=O)(=O)c2c(C)n[nH]c2C)cc1OCC	.	-6.0
CC1(C)C(c2cccs2)=[N+]([O-])C2(CCCCC/C2=N\O)N1O (configuration not stated)	i	0.6
CCC(Sc1ccc2nnc(-c3ccc(F)cc3)n2n1)C(=O)OC (configuration not stated)	i	0.6
COc1ccc(Cl)cc1NC(=O)c1oc(C)nc1C	i	1.5
CCCCP(=O)(CCCC)Cc1ccccc1O	i	2.3
CCc1c(-c2ccccc2)nc2nc(C)c(C)nn12	.	0.4
Cc1sc2c(c1C)CN(C1CC(C)(C)NC(C)(C)C1)CN2C(=O)c1ccco1	i	0.9
CC1CCCCN1CCNS(=O)(=O)c1ccc2c(c1)oc(=O)n2C (configuration not stated)	i	-0.8
Cc1noc(/C=C/N(C)C)c1S(=O)(=O)N1CCCC(C(=O)NCc2ccc(F)cc2)C1 (configuration not stated)	.	-0.9
Cc1onc(-c2c(Cl)cccc2Cl)c1C(=O)NCCN1CCOCC1	i	1.0
O=C(Nc1ccncc1)c1cc2ccccc2oc1=O	.	0.3

2 of the compounds above, with values ahead of the structure.
VCAM-1 rise,Proteasome disasm,Compound
.,-0.9,Cc1noc(/C=C/N(C)C)c1S(=O)(=O)N1CCCC(C(=O)NCc2ccc(F)cc2)C1 (configuration not stated)
i,1.0,Cc1onc(-c2c(Cl)cccc2Cl)c1C(=O)NCCN1CCOCC1

4 of the compounds above, bar-delimited.
molecule | VCAM-1 rise | Proteasome disasm
CC1(C)C(c2cccs2)=[N+]([O-])C2(CCCCC/C2=N\O)N1O (configuration not stated) | i | 0.6
Fc1ccc(-n2c(Cc3ccccc3)nnc2SCc2nc(-c3cccs3)no2)cc1 | i | 0.2
CCCCP(=O)(CCCC)Cc1ccccc1O | i | 2.3
CCOc1cccc(/C(O)=C2/C(=O)C(=O)N(CCN3CCOCC3)C2c2cccnc2)c1 (configuration not stated) | i | -0.8

Additional records
SMILES	VCAM-1 rise	Proteasome disasm
COCCCNC(=O)C1CCN(C(=O)Nc2ccc(Cl)cc2)CC1	i	0.7
Cc1ccc(N(CC(=O)NCc2cccs2)S(=O)(=O)c2cccs2)cc1	.	0.3
COc1ccc(NC2c3ccccc3C(=O)N2Cc2ccco2)cc1OC (configuration not stated)	.	-0.6
Cn1c(=NC(=O)CSCC(=O)N2CCCC2)sc2ccccc21	.	-1.4
COc1cccc(C2N(c3ccccn3)C(=O)C3CCCN32)c1OC (configuration not stated)	.	0.6
O=C(Nc1ccccc1)N(CCc1ccncc1)C1CCCCC1	.	1.0
O=C(Nc1ccccc1Cl)N1CCN(c2ccc3nnc(-c4ccccc4)n3n2)CC1	.	-1.2
Cc1ccc(CN2C(=O)CCC2C(=O)N2CCN(c3ccc(F)cc3)CC2)cc1 (configuration not stated)	.	-0.9
C[C@H](NC(=O)Nc1cccc(C(F)(F)F)c1)C(=O)O	i	-3.1
CCOC(=O)N1CCN(C(=O)CSc2nnc(COc3ccccc3)o2)CC1	i	0.3
O=C(Cc1ccc(F)cc1)Nc1c2c(nn1-c1cccc(Cl)c1)CS(=O)C2 (configuration not stated)	.	-1.0
CC(C)N1C(=O)CCC1C(=O)N1CCC(Cc2ccccc2)CC1 (configuration not stated)	.	0.0
Cc1cccc(N2CCN(S(=O)(=O)c3ccc4c(c3)n(C)c(=O)c(=O)n4C)CC2C)c1 (configuration not stated)	.	0.8
CSC1CCCCC1(O)CSc1nc2c(cc1C#N)CCCC2 (configuration not stated)	i	-0.8
Cc1ccc(C(C)C)c(OCc2nc(-c3nonc3N)no2)c1	.	5.9
COc1ccc(C)cc1S(=O)(=O)N(C)CC(=O)Nc1ccc2c(c1)OCCO2	i	0.4
COc1cc(N2C(=O)CSC23C(=O)Nc2ccccc23)cc(OC)c1OC (configuration not stated)	i	-1.6
CN(C)c1ccc(/C=c2\sc3nc(-c4ccccc4)nn3c2=O)cc1	.	?
O=C(c1ccc(-c2ccccc2)cc1)N1CCC(C(=O)N2CCCC2)CC1	i	1.3
Cc1cccnc1-n1c(CCN2C(=O)c3ccccc3C2=O)nc2ccccc2c1=O	i	-0.3

Screens from PubChem BioAssay.
